Source: PubChem
Lassa entry: inhibitors of Lassa virus binding or entry into cells; AID 720533; actives 4.1% (n = 18,000); Potency, µM (highest dose often 49.2 µM), for inactives: at the top dose activity change, negative = inhibition, most hits filed as inhibitors; Lassa virus pseudotyped entry inhibition, cell-based qHTS; control for the full effect not named in the record; many of its hits are not listed in these tables; active = well fitted inhibition curve with a large enough effect; inconclusive = small, poorly fitted or top-dose-only effect; inactive = no such curve, though single readings can be large or run the other way; tested in HEK293 cells; also: luciferase read-out
Marburg entry: blocks Marburg virus binding or cell entry. Marburg virus pseudotype entry/binding inhibition, cell-based; control for the full effect not named in the record; many of its hits are not listed in these tables. AID 720532. Potency, µM (top dose mostly 49.2 µM), without a hit: at the top dose activity change, negative = inhibition, usual class: inhibitors. actives 6.5% (n = 18,000); active means well fitted inhibition curve with a large enough effect; inconclusive means small, poorly fitted or top-dose-only effect; inactive means no such curve, though single readings can be large or run the other way; tested in HEK293 cells; also: luciferase read-out
An asterisk follows results filed as active; u = inconclusive; x = no result given; & = joins results of further samples; ! = repeats disagree; [ ] = another dose, or the depositor's remark. % is scaled to controls: 0 for no effect and ±100 for the full control effect; potency is read from the fitted curve at half-maximal effect.

Under each structure – Lassa entry	Marburg entry
CC1(C)S[C@@H]2[C@H](NC(=O)[C@H](N)c3ccc(O)cc3)C(=O)N2[C@H]1C(=O)O
  -4%	-3%
COc1cc2ccc(=O)oc2c(O)c1O
  -19%&0%	1%&10%
COC(=O)CC=C[C@@H](C)[C@H](OC)c1c(Br)ccc2c1OCO2
  5%[8.59 µM]	u
COc1cc(O)c(C(=O)c2ccccc2)cc1S(=O)(=O)O
  -11%	-1%
C[Si](C)(C)O[Si](C)(C)C
  -3%	6%
N[C@H](C(=O)O)c1ccc(O)cc1
  -5%	10%
OCC1CCCN2CCCCC12 (stereo unspecified)
  0%&16%	-5%&5%
CCNC(=O)[C@@H]1O[C@@H](n2cnc3c(N)ncnc32)[C@H](O)[C@H]1O
  -7%	2%
COC(=O)C1CCN(C2CN(Cc3ccc(F)cc3)S(=O)(=O)C2)CC1 (stereo unspecified)
  16%	15%
COC(=O)CC1c2ccccc2C=C(C)N1C(=O)OC (stereo unspecified)
  -8%	20%
COc1ccc(CN2CC(COCc3ccccc3)Oc3ccccc3S2(=O)=O)cc1 (stereo unspecified)
  x	-10%
CCOC(=O)[C@@]12[C@@H]3[C@@H](CCN3C(=O)N[C@H]1c1ccccc1)C2(C)C
  x	2%[8.59 µM]
C=CCC12C=C(OC)C(=O)C(C1=O)C(c1ccc(OC)cc1)C2C (stereo unspecified)
  -32%[8.59 µM]	0%[8.59 µM]
COC1=C[C@H]2[C@H]3Cc4ccc(OC)c(O)c4[C@@]2(CCN3C)CC1=O
  4%	-19%
OC(O)C(Cl)(Cl)Cl
  -17%	7%
O=C(CSc1ncccn1)NCC1Cc2cccc(-c3ncccn3)c2O1 (stereo unspecified)
  -5%	141µM*
CC1=CC(=O)C2C(C)(C)CCC[C@@]2(C)[C@@]1(O)CCc1ccoc1 (stereo partly specified)
  u	-23%
CC(C)(C)c1cc(O)c(C(C)(C)C)cc1O
  -15%&-16%	-25%&10%
COC(=O)C1CCN(Cc2ccc3c(c2)CN(C(=O)c2cc4ccccc4n2C)CCO3)CC1
  -10%	-18%
CC(=O)[C@@]1(O)CC[C@H]2[C@@H]3C=C(Cl)C4=CC(=O)[C@@H]5C[C@@H]5[C@]4(C)[C@H]3CC[C@@]21C
  -1%	4%

Part of the list above in order of heavy-atom count, smallest number first:
Under each structure – Lassa entry	Marburg entry
OC(O)C(Cl)(Cl)Cl
  -17%	7%
C[Si](C)(C)O[Si](C)(C)C
  -3%	6%
OCC1CCCN2CCCCC12 (stereo unspecified)
  0%&16%	-5%&5%
COc1cc2ccc(=O)oc2c(O)c1O
  -19%&0%	1%&10%
CC(C)(C)c1cc(O)c(C(C)(C)C)cc1O
  -15%&-16%	-25%&10%
COC(=O)CC1c2ccccc2C=C(C)N1C(=O)OC (stereo unspecified)
  -8%	20%
COc1cc(O)c(C(=O)c2ccccc2)cc1S(=O)(=O)O
  -11%	-1%
CCNC(=O)[C@@H]1O[C@@H](n2cnc3c(N)ncnc32)[C@H](O)[C@H]1O
  -7%	2%
CC1=CC(=O)C2C(C)(C)CCC[C@@]2(C)[C@@]1(O)CCc1ccoc1 (stereo partly specified)
  u	-23%
C=CCC12C=C(OC)C(=O)C(C1=O)C(c1ccc(OC)cc1)C2C (stereo unspecified)
  -32%[8.59 µM]	0%[8.59 µM]
CC1(C)S[C@@H]2[C@H](NC(=O)[C@H](N)c3ccc(O)cc3)C(=O)N2[C@H]1C(=O)O
  -4%	-3%
CC(=O)[C@@]1(O)CC[C@H]2[C@@H]3C=C(Cl)C4=CC(=O)[C@@H]5C[C@@H]5[C@]4(C)[C@H]3CC[C@@]21C
  -1%	4%
O=C(CSc1ncccn1)NCC1Cc2cccc(-c3ncccn3)c2O1 (stereo unspecified)
  -5%	141µM*
COc1ccc(CN2CC(COCc3ccccc3)Oc3ccccc3S2(=O)=O)cc1 (stereo unspecified)
  x	-10%
COC(=O)C1CCN(Cc2ccc3c(c2)CN(C(=O)c2cc4ccccc4n2C)CCO3)CC1
  -10%	-18%

Additional results follow:
Under each structure – Lassa entry	Marburg entry
CCc1cc2c(nc1CC)CCN(CCC(C)=NOC[C@H]1O[C@H](c3ccccc3)C=C[C@H]1Oc1ccc(OC)cc1)C2
  2%[8.59 µM]	-25%[8.59 µM]
C=CC[C@@H]1C=C[C@H](ON=C[C@@H](N[S+](=O)([O-])c2ccc(C)cc2)[C@H](C)C=CCC(=O)OC)[C@H](CO)O1
  -27%[8.59 µM]	-14%[8.59 µM]
N#Cc1ccc(CS(=O)(=O)c2nnnn2-c2ccccc2)cc1
  -8%	-19%
N[C@H](C(=O)O)C(O)C(O)C(O)CO (stereo partly specified)
  3%	5%
COc1cccc(-n2c(SC)nnc2C2CCN(CCC(C)c3ccc(C)o3)CC2)c1 (stereo unspecified)
  -16%	-5%
O=C1C[C@@H](c2ccccc2)[C@H](c2ccc(Br)cc2)O1
  -19%[8.59 µM]	-17%[8.59 µM]
C=C(C)C(=O)OCCOC(=O)C(=C)C
  2%	3%
COc1cc(C(CCN2CCOCC2)c2c(OC)cc(OC)c3c(-c4ccccc4)cc(=O)oc23)cc(OC)c1OC (stereo unspecified)
  4.5µM*	10µM*
CCC(=O)O[C@H](CC(=O)O)C[N+](C)(C)C
  -8%	-7%
CCC(C)C(N)C(=O)NC(CC(N)=O)C(=O)NC(CC(C)C)C(=O)NC(CCCCN)C(=O)NC(C)C(=O)NC(CC(C)C)C(=O)NC(C)C(=O)NC(C)C(=O)NC(CC(C)C)C(=O)NC(C)C(=O)NC(CCCCN)C(=O)NC(CCCCN)C(=O)NC(C(=O)NC(CC(C)C)C(N)=O)C(C)CC (stereo unspecified)
  -11%	-4%
CC(C)C[C@H](NC(=O)[C@H](CC(C)C)NC(=O)[C@@H](Cc1c[nH]c2ccccc12)NC(=O)[C@H](Cc1ccccc1)NC(=O)[C@@H](Cc1c[nH]c2ccccc12)NC(=O)[C@H](CCC(N)=O)NC(=O)[C@H](CCC(N)=O)NC(=O)[C@@H]1CCCN1C(=O)[C@H](CCCCN)NC(=O)[C@@H]1CCCN1C(=O)[C@H](N)CCCN=C(N)N)C(N)=O
  3%	26%
O=C(O)c1cc(O)c2c(c1)C(=O)c1cc(O)cc(O)c1C2=O
  -11%	-12%
C[C@H]1[C@H]2Cc3ccc(O)cc3[C@]1(C)CCN2CCc1ccccc1
  32µM*	18µM*
O=S1(=O)CC(N2CCC(Cc3ccccc3)CC2)CN1C1CCCC1 (stereo unspecified)
  10%	31%[activator]
Cc1cc2oc(=O)cc(CN(Cc3ccccc3)Cc3ccccc3)c2cc1Cl
  4%	-30%
CN(C)CCc1c[nH]c2ccccc12
  -16%[107 µM]	u
COc1cccc([C@@H]2Oc3ccc(Br)cc3C[C@H]2OC(=O)NS(=O)(=O)c2ccc(C)cc2)c1
  -1%	6%
O=c1cc(-c2ccccc2)oc2c1ccc1ccccc12
  -23%	9%
C=CCN1CCc2cc(O)c(O)cc2[C@H](c2ccccc2)C1
  -7%	-12%
CCN1C(=NCCCOC(C)C)N[C@H](c2ccccc2)[C@H](C(=O)OC)[C@H]1C
  33%[activator][8.59 µM]	0%[8.59 µM]
CN1CCc2cc3c(cc2[C@@H]1O)OCO3
  -2%[17.8 µM]	-24%[17.8 µM]
CCSC[C@H](NC(=O)[C@H](C)N)C(=O)N[C@@H](CC(=O)O)C(=O)N[C@H](C(=O)N[C@@H](C)C(=O)N[C@H](C(=O)N[C@@H](CSCC)C(=O)N[C@H](C(=O)N[C@H](C(=O)N[C@@H](Cc1cnc[nH]1)C(=O)N[C@@H](CCCNC(=N)N)C(=O)N[C@@H](CC(C)C)C(=O)N[C@@H](C)C(=O)NCC(=O)N[C@@H](CC(C)C)C(=O)N[C@@H](CC(C)C)C(=O)N[C@@H](CO)C(=O)N[C@@H](CCCNC(=N)N)C(=O)N[C@@H](CO)C(=O)NCC(=O)NCC(=O)N[C@H](C(=O)N[C@H](C(=O)N[C@@H](CCCCN)C(=O)N[C@@H](CC(N)=O)C(=O)N[C@@H](CC(N)=O)C(=O)N[C@@H](Cc1ccccc1)C(=O)N[C@H](C(=O)N1CCC[C@H]1C(=O)N[C@H](C(=O)N[C@@H](CC(N)=O)C(=O)N[C@H](C(=O)NCC(=O)N[C@@H](CO)C(=O)N[C@@H](CCCCN)C(=O)N[C@@H](C)C(=O)N[C@@H](Cc1ccccc1)C(N)=O)C(C)C)[C@@H](C)O)C(C)C)C(C)C)C(C)C)[C@@H](C)O)C(C)C)[C@@H](C)O)[C@@H](C)O
  -11%	0%
CC1=C2C(=COC(C)C2C)C(=O)C(C(=O)O)=C1O (stereo unspecified)
  -4%	-4%
COc1cc(C)c(NC(=O)CN(C)C)cc1Nc1nc(Nc2cccc(F)c2C(N)=O)c2cc[nH]c2n1
  u	0.79µM*
C/C=C(\C)C(=O)OC1c2c(ccc3ccc(=O)oc23)OC(C)(C)C1OC(C)=O (stereo unspecified)
  -11%	5%
CC(=O)OC[C@H]1O[C@@H](ON=CC[C@@H]2C=C[C@@H](OC(C)=O)[C@@H](COC(C)=O)O2)[C@@H](OC(C)=O)[C@@H](OC(C)=O)[C@@H]1OC(C)=O
  -11%[8.59 µM]	-12%[8.59 µM]
CCCCCCc1c(C[C@H](N)C(=O)O)o[nH]c1=O
  -11%&4%	10%&0%
CCOC(=O)C1(c2ccccc2)CCCN(C)CC1 (stereo unspecified)
  -11%	-6%
CN(c1ccc(NC(=O)Nc2c(Cl)cccc2Cl)cc1)c1ccnc(Nc2cccc(CS(C)(=O)=O)c2)n1
  -48%	-44%
CN(C)C(=O)c1ccc(-c2nccc(NCc3cccnc3)n2)cc1
  -2%	13%
CCCN(CC1CC1)c1nc(C)nc(Nc2c(Cl)cc(Cl)cc2Cl)c1Cl
  -1%	-7%
CNC(=O)C[C@H]1C(=O)N(c2ccc(OC)cc2)C[C@@H]1C
  x	9%
COc1cccc([C@@H]2Oc3ccc(Br)cc3C(=O)[C@H]2OC(=O)N[C@H]2CCCc3ccccc32)c1
  1%	19%
COc1ccc([C@H]2C[C@@H](O)[C@H](n3cc(-c4ccc(F)cc4)nn3)CN2Cc2cccs2)cc1
  u	u
O=C(NCCc1cccnc1)c1cnn(-c2ncc3c(n2)-c2ccccc2CC3)c1C1CC1
  21%	-4%
COc1cccc([C@@H]2Oc3ccc(OC)cc3C(=O)[C@H]2OC(=O)N[C@H](C)C2CCCCC2)c1
  15%	-6%
O=S(=O)(O)C(F)(F)C(F)(F)C(F)(F)C(F)(F)C(F)(F)C(F)(F)C(F)(F)C(F)(F)F
  -20%[107 µM]	16%[107 µM]
COc1cc2c(cc1OC)[C@@H]1O[C@](c3ccsc3)(C2)Oc2c1c(=O)oc1ccc(F)cc21
  11%[8.59 µM]	28%[8.59 µM]
COc1ccccc1NC(=O)Nc1nc(-c2cccnc2)nc2ccccc12
  0%&7%	1%&4%
NCCCC[C@H](NC(=O)[C@@H](Cc1ccccc1)NC(=O)[C@H](Cc1c[nH]c2ccccc12)NC(=O)[C@@H](CCCCN)NC(=O)[C@@H](Cc1c[nH]c2ccccc12)NC(=O)[C@@H](N)Cc1cnc[nH]1)C(N)=O
  -3%	-3%
C=C1C2CC[C@@]3(C)C(c4ccoc4)OC(=O)C[C@@]13OC1CC(=O)C(C)(C)C(CC(=O)OC)[C@]12C (stereo partly specified)
  -19%	-8%
Cc1cc(=O)c2ccc(Cl)cc2[nH]1
  -13%[107 µM]	-3%[107 µM]
C=C1CCC(=O)C(C)CCC2C1CC2(C)C (stereo unspecified)
  -2%	1%
COc1ccc2c(c1)O[C@@H](c1ccc3c(c1)OCO3)[C@H](OC(=O)NCc1ccc3c(c1)OCO3)C2=O
  -2%	13%
CC(=O)OC[C@H]1O[C@H](C#CCCCc2ccccc2)C=C[C@H]1OC(C)=O
  -27%[8.59 µM]	u
COc1ccc(CN2CCC3(CC2)c2ccccc2[C@@H](NC(=O)c2ccco2)[C@@H]3OC)c(O)c1
  -11%	u
COc1ccc(CNS(=O)(=O)c2ccc(N3CCCC3)cc2Br)cc1
  x	5%
O=C(CCl)c1ccc(Cl)cc1Cl
  13µM*	8.9µM*
CN(C)CCCc1cc(C(=O)Nc2ccc(-c3ccncc3)cc2)ccc1O
  35µM*!	6.3µM*
C#CC1(O)C(OC)=CC2C(=O)C1C(c1ccccc1)C2C (stereo unspecified)
  x	-4%[8.59 µM]
C[C@@H]1C=CCC(=O)N2[C@H](CC(=O)N[C@@H]1c1ccccc1)C[C@@H](C)[C@@H]2c1ccccc1
  -22%[8.59 µM]	-24%[8.59 µM]
CCCCCCCCOc1ccc(C(=O)c2ccccc2)c(O)c1
  -20%	-2%
